Vaccinia inh: blocks a specific stage of Vaccinia orthopoxvirus infection; AID 1053133; 89,000 tested, 0.01% active; Vaccinia-infected cells, mCherry/Venus stage reporter fluorescence; stronger effect = lower value; some inactives read as strong as hits; activity change (mCherry), % (test concentration not listed);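 active = mCherry past -33% and 40 or more points under the early reporter, replicates agreeing; inconclusive = past -33% without that gap or agreement; tested in A549 cells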;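 also: scaled between vehicle wells and reference inhibitor wells; 23 nL library stock went into each well; one replicate is shown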
Vaccinia inh Venus: second read-out of Vaccinia inh, no call of its own (marks repeat the call); activity change (Venus), %; measured here: Venus reporter, other viral stage;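 negative = less Venus signal; first of two replicates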
An asterisk follows results filed as active; ? = inconclusive; nt = not tested or not shown. These rows are one share of the data; count on the stated rates, not on these rows.

SMILES | Vaccinia inh | Vaccinia inh Venus
C[C@@H]1CN([C@H](C)CO)C(=O)c2cc(-c3cccc(C(=O)N(C)C)c3)cnc2O[C@@H]1CN(C)CC1CC1 | 12 | 7
C[C@H]1CN([C@@H](C)CO)C(=O)c2cc(/C=C/c3ccccc3)cnc2O[C@@H]1CN(C)C(=O)c1cccnc1 | 21 | 2
O=C(C[C@H]1CC[C@H]2[C@@H](COC[C@@H](O)CN2Cc2cccc(-c3ccncc3)c2)O1)N1CCCCC1 | -19 | -19
C[C@H](CO)N1C[C@H](C)[C@H](CN(C)C)OCc2ccccc2-c2ccccc2C1=O | 11 | 0
O=S(=O)(c1ccc(F)cc1)N1CCCCN2[C@H](C1)[C@H](c1ccc(-c3cncnc3)cc1)[C@@H]2CO | 11 | -1
CO[C@H]1CN(C)C(=O)c2ccc(NC(C)=O)cc2OC[C@@H](C)N(C(=O)C2CC2)C[C@H]1C | 6 | 10
CCNC(=O)C[C@@H]1CC[C@H]2[C@@H](COC[C@@H](O)CN2Cc2ccccc2F)O1 | 12 | 0
C[C@H](CO)N1C[C@H](C)[C@H](CN(C)S(=O)(=O)c2ccc(F)cc2)Oc2ccc(NC(=O)Cn3cnnn3)cc2C1=O | 0 | 12
C[C@H](CO)N1C[C@H](C)[C@@H](CN(C)CC2CCCC2)OCc2cnnn2CCCC1=O | 0 | -3
CCCC(=O)Nc1ccc2c(c1)C(=O)N(C)[C@H]1CC[C@H](CC(=O)NCCCN(C)C)O[C@@H]1CO2 | 7 | 8
CCCC#Cc1ccc([C@@H]2[C@H]3CN(S(C)(=O)=O)CCCCN3[C@H]2CO)cc1 | -6 | -15
O=C(Nc1cc(F)ccc1F)N[C@@H]1CC[C@H](CCn2cc(C3CC3)nn2)O[C@H]1CO | 1 | 4
CO[C@@H]1CN(C)C(=O)c2ccc(NS(=O)(=O)CC(F)(F)F)cc2OC[C@@H](C)N(CCC(F)(F)F)C[C@H]1C | -4 | -4
COCC(=O)Nc1ccc2c(c1)C(=O)N(C)[C@@H]1CC[C@@H](CC(=O)N3CCc4ccccc4C3)O[C@H]1CO2 | 5 | 5
COc1ccc(C#Cc2ccc3c(c2)O[C@H](CN(C)C(=O)Nc2cccc(OC)c2)[C@H](C)CN([C@@H](C)CO)S3(=O)=O)cc1 | 9 | -4
CS(=O)(=O)N1[C@@H](C#N)[C@@H](c2ccccc2-c2ccc(F)cc2)[C@@H]1CO | 1 | 1
C[C@@H]1CN([C@@H](C)CO)C(=O)c2cc(NC(=O)Cc3ccccc3)ccc2O[C@@H](C)CCCCO[C@H]1CN(C)C(=O)c1ccccc1 | -13 | -12
COc1ccc(NC(=O)Nc2ccc3c(c2)C(=O)N([C@@H](C)CO)C[C@H](C)[C@H](CN(C)C(=O)c2ccccc2)OCCCC[C@H](C)O3)cc1 | -15 | -18
O=C(C[C@H]1CC[C@H]2[C@@H](COC[C@@H](O)CN2C(=O)c2ccccc2)O1)N1CCc2ccccc2C1 | -13 | -9
CC(C)NC(=O)N[C@H]1CC[C@@H](CC(=O)N2CCCCC2)O[C@H]1CO | -5 | -3
C[C@@H]1CN([C@H](C)CO)C(=O)c2cccc(NS(=O)(=O)c3ccc(Cl)cc3)c2O[C@@H]1CN(C)Cc1ccc(Oc2ccccc2)cc1 | -19 | -4
C[C@H](CO)N1C[C@H](C)[C@@H](CN(C)S(=O)(=O)c2ccc(F)cc2)Oc2c(NC(=O)NC3CCCCC3)cccc2C1=O | -22 | -11
C[C@@H]1CN([C@H](C)CO)C(=O)c2cc(C#CC3CC3)cnc2O[C@H]1CN(C)C | 3 | 1
CCCNC(=O)N1C[C@@H](C)[C@@H](OC)CN(C)C(=O)c2cc(NC(C)=O)ccc2OC[C@@H]1C | 12 | 14
C[C@@H]1CN([C@H](C)CO)C(=O)Cc2cc(NC(=O)CCN3CCOCC3)ccc2O[C@H]1CN(C)Cc1ccncc1 | 5 | 0

Later entries
SMILES | Vaccinia inh | Vaccinia inh Venus
COc1ccc(NC(=O)N(C)C[C@H]2OCCCC[C@@H](C)Oc3ccc(NC(=O)c4ccccc4)cc3C(=O)N([C@H](C)CO)C[C@@H]2C)cc1 | 10 | 4
C[C@H]1CCCCO[C@H](CN(C)Cc2ccc(C(=O)O)cc2)[C@@H](C)CN([C@@H](C)CO)C(=O)c2cc(NS(=O)(=O)c3ccc(Cl)cc3)ccc2O1 | 26 | 12
Cc1ccc(CN(C)C[C@@H]2OCc3cn(nn3)CCCC(=O)N([C@@H](C)CO)C[C@@H]2C)cc1 | 21 | 23
CN1CCN(C(=O)C[C@H]2CC[C@H]3[C@@H](COC[C@@H](O)CN3C(=O)Nc3ccc(Cl)cc3)O2)CC1 | 7 | 0
O=C(C[C@@H]1CC[C@H]2[C@@H](COC[C@H](O)CN2CCC(F)(F)F)O1)NCC1CC1 | 5 | 8
C[C@@H]1CN([C@@H](C)CO)C(=O)Cc2cc(NC(=O)Nc3ccc(C(F)(F)F)cc3)ccc2O[C@@H]1CN(C)S(C)(=O)=O | -12 | -14
C[C@H](CO)N1C[C@H](C)[C@H](CN(C)Cc2cccnc2)Oc2cc(-c3ccccc3F)ccc2S1(=O)=O | -32 | -24
COCC(=O)Nc1ccc2c(c1)[C@H]1C[C@H](CC(=O)NCCc3ccccc3)O[C@H](CO)[C@H]1O2 | 12 | 10
Cc1ccc(S(=O)(=O)Nc2cccc3c2O[C@H](CN(C)S(=O)(=O)c2ccccc2)[C@@H](C)CN([C@@H](C)CO)C3=O)cc1 | -20 | -20
N#C[C@H]1[C@@H](c2ccc(-c3cccnc3)cc2)[C@H](CO)N1C(=O)C1CC1 | 17 | 10
CN(C)CC#Cc1ccc([C@@H]2[C@@H](CO)N3C(=O)CN(C(=O)c4cccnc4)C[C@@H]23)cc1 | 12 | 9
CC(C)NC(=O)N(C)C[C@@H]1Oc2ccc(NC(=O)CCCCCC(=O)Nc3ccccc3N)cc2C(=O)N([C@H](C)CO)C[C@H]1C | 10 | 2
Cc1ccc(S(=O)(=O)NCC[C@H]2CC[C@@H](NC(=O)CC3CC3)[C@H](CO)O2)cc1 | -2 | 8
CO[C@H]1CN(C)C(=O)c2cc(NC(=O)c3ccc4c(c3)OCO4)ccc2OC[C@@H](C)N(CC2CC2)C[C@H]1C | -1 | 8
C[C@@H]1CN([C@@H](C)CO)C(=O)c2cc(NC(=O)Nc3ccc4c(c3)OCO4)ccc2O[C@@H](C)CCCCO[C@H]1CN(C)C(=O)C1CCCCC1 | -24 | -23
C[C@H](CO)N1C[C@H](C)[C@@H](CN(C)S(=O)(=O)c2cccc(F)c2)Oc2ncc(-c3cccc(F)c3)cc2C1=O | ? | nt
Cc1ccc(S(=O)(=O)N(C)C[C@@H]2OCCCC[C@@H](C)Oc3ccc(NS(=O)(=O)c4cn(C)cn4)cc3C(=O)N([C@@H](C)CO)C[C@H]2C)cc1 | 8 | 7
C[C@H]1CN([C@@H](C)CO)C(=O)c2cc(C3=CCCC3)cnc2O[C@H]1CN(C)Cc1cccnc1 | -3 | -4
O=C(NCCc1ccccc1)[C@@H]1[C@@H](CO)[C@@H]2Cn3c(cccc3=O)[C@H]1N2C(=O)C1CCCC1 | 12 | 7
O=C(Nc1ccccc1)N[C@H]1CC[C@H](CCNS(=O)(=O)c2cccc(F)c2)O[C@H]1CO | 0 | 7
COc1ccc2c3c(n(C)c2c1)[C@@H](CO)N(C(=O)C1CCCC1)CC31CCN(C(=O)CC2CC2)CC1 | -7 | -7
C[C@@H]1CCCCO[C@H](CN(C)S(=O)(=O)c2cn(C)cn2)[C@@H](C)CN([C@@H](C)CO)C(=O)c2cc(NC(=O)Nc3ccc(F)cc3)ccc2O1 | 9 | 10
O=C(c1ccccn1)N1CC2(C1)[C@@H](c1ccccc1)[C@@H](CO)N2C(=O)CC1CC1 | 5 | 11
O=C(C[C@H]1CC[C@@H](NC(=O)Nc2ccc(C(F)(F)F)cc2)[C@H](CO)O1)NCCN1CCCC1 | 3 | 2
CCCC(=O)Nc1ccc2c(c1)C(=O)N(C)[C@@H]1CC[C@@H](CC(=O)NCCc3ccncc3)O[C@@H]1CO2 | 7 | 1

2 compounds picked at random from the list so far:
SMILES | Vaccinia inh | Vaccinia inh Venus
O=C(C[C@H]1CC[C@@H](NC(=O)Nc2ccc(C(F)(F)F)cc2)[C@H](CO)O1)NCCN1CCCC1 | 3 | 2
COCC(=O)Nc1ccc2c(c1)[C@H]1C[C@H](CC(=O)NCCc3ccccc3)O[C@H](CO)[C@H]1O2 | 12 | 10

(more compounds)
SMILES | Vaccinia inh | Vaccinia inh Venus
COCC(=O)N1CCC2(CC1)CN(Cc1ccc3c(c1)OCO3)[C@@H](CO)c1c2c2ccc(OC)cc2n1C | -14 | -34
COc1ccccc1-c1ccc([C@H]2[C@@H](CO)N(C(=O)NC3CCCC3)[C@H]2C#N)cc1 | -2 | 7
C[C@@H]1CCCCO[C@@H](CN(C)C(=O)C2CCCCC2)[C@H](C)CN([C@@H](C)CO)C(=O)c2cc(NC(=O)NC3CCCCC3)ccc2O1 | -24 | -21
C[C@@H]1CN([C@H](C)CO)S(=O)(=O)c2ccc(C#CC3CC3)cc2O[C@@H]1CN(C)Cc1cccc(F)c1 | ? | nt
C[C@@H]1CN([C@@H](C)CO)C(=O)c2cccc(NC(=O)CCCCCC(=O)Nc3ccccc3N)c2O[C@@H]1CN(C)S(=O)(=O)c1cn(C)cn1 | 47 | 23
N#Cc1ccc(-c2ccc3c(c2)[C@H]2[C@H](CCN2C(=O)C2CC2)[C@@H](CO)N3)cc1 | -19 | -15
Cc1ccc(S(=O)(=O)N2C[C@@H](O)COC[C@@H]3O[C@@H](CC(=O)N[C@H]4CCN(Cc5ccccc5)C4)CC[C@H]32)cc1 | ? | nt
CCS(=O)(=O)N1[C@H](C#N)[C@H](c2ccc(C#CC(C)C)cc2)[C@@H]1CO | -7 | -9
C[C@H]1CN([C@@H](C)CO)C(=O)c2cc(NC(=O)Nc3cccc4ccccc34)ccc2O[C@H]1CN(C)Cc1ccc(Cl)c(Cl)c1 | -20 | -5
C[C@@H]1CCCCO[C@H](CN(C)C(=O)Nc2ccccc2)[C@@H](C)CN([C@@H](C)CO)C(=O)c2cc(NC(=O)C3CCCCC3)ccc2O1 | 0 | -11
CN1c2ccc(C#Cc3cccnc3)cc2[C@@H]2[C@@H](CCN2S(=O)(=O)c2cccc(F)c2)[C@@H]1CO | 3 | 14
C[C@@H]1CN([C@@H](C)CO)C(=O)c2cccc(NC(=O)C3CC3)c2O[C@H]1CN(C)Cc1ccc2c(c1)OCO2 | 0 | 5
CC(=O)N1CC[C@@H]2[C@H]1c1cc(-c3ccc(C#N)cc3)ccc1N(C)[C@@H]2CO | -2 | 9
O=C(O)C[C@H]1C[C@H]2c3cc(NC(=O)Nc4ccc(F)cc4)ccc3O[C@H]2[C@@H](CO)O1 | 6 | 8
O=C(C[C@@H]1CC[C@H]2[C@@H](COC[C@H](O)CN2C(=O)Nc2cccc(F)c2)O1)NCc1ccccc1Cl | -17 | -17
O=C(Nc1ccc(Cl)c(Cl)c1)N[C@H]1CC[C@H](CCn2cc(C3CCCCC3)nn2)O[C@H]1CO | 8 | 16
COc1ccc(NC(=O)Nc2cccc3c2O[C@H](CN(C)C(=O)Nc2ccc(F)cc2)[C@@H](C)CN([C@H](C)CO)C3=O)cc1 | -1 | -12
O=C(C1CCC1)N1CC[C@@H]2[C@H](CO)Nc3ccc(C4=CCCCC4)cc3[C@@H]21 | -7 | -14
O=C(C[C@H]1CC[C@H](NC(=O)c2cccnc2)[C@@H](CO)O1)NCc1ccc(Cl)c(Cl)c1 | -5 | 5
CCNC(=O)[C@H]1[C@H](CO)[C@H]2Cn3c(ccc(/C=C/c4ccccc4)c3=O)[C@@H]1N2C(=O)C1CCCC1 | 22 | 10
Cc1cccc(-c2ccc([C@@H]3[C@H](CO)N4CCCCN(C(=O)NC(C)C)C[C@@H]34)cc2)c1 | ? | nt
C[C@H](CO)N1C[C@H](C)[C@@H](CN(C)Cc2ccc(C(=O)Nc3ccccc3N)cc2)Oc2c(NC(=O)c3cnccn3)cccc2C1=O | -17 | -12
CC(=O)NCCCC[C@@H]1NC(=O)[C@H]2C[C@@H](C(=O)NCCCCCCNC(=O)CS)[C@@H](c3ccc(O)cc3)N2C1=O | 14 | 3
Cc1noc(C)c1S(=O)(=O)N(C)C[C@@H]1OCCCC[C@H](C)Oc2ccc(NC(=O)c3ccccc3)cc2C(=O)N([C@H](C)CO)C[C@H]1C | -25 | -11
CCC(=O)N1CCC2(CC1)CN(C(=O)c1cnccn1)[C@H](CO)c1c2c2ccc(OC)cc2n1C | 0 | -11
CCNC(=O)C[C@@H]1C=C[C@@H](NC(=O)C2CC2)[C@@H](CO)O1 | 11 | 11
COc1ccc2c3c([nH]c2c1)[C@H](CO)N(Cc1cccnc1)CC31CCN(C(=O)CN(C)C)CC1 | 7 | 1

Part of the list above in order of heavy-atom count, high to low.
SMILES | Vaccinia inh | Vaccinia inh Venus
C[C@@H]1CN([C@H](C)CO)C(=O)c2cccc(NS(=O)(=O)c3ccc(Cl)cc3)c2O[C@@H]1CN(C)Cc1ccc(Oc2ccccc2)cc1 | -19 | -4
C[C@@H]1CN([C@H](C)CO)C(=O)c2cc(-c3cccc(C(=O)N(C)C)c3)cnc2O[C@@H]1CN(C)CC1CC1 | 12 | 7
CCNC(=O)[C@H]1[C@H](CO)[C@H]2Cn3c(ccc(/C=C/c4ccccc4)c3=O)[C@@H]1N2C(=O)C1CCCC1 | 22 | 10
CCCC(=O)Nc1ccc2c(c1)C(=O)N(C)[C@H]1CC[C@H](CC(=O)NCCCN(C)C)O[C@@H]1CO2 | 7 | 8
O=C(Nc1ccc(Cl)c(Cl)c1)N[C@H]1CC[C@H](CCn2cc(C3CCCCC3)nn2)O[C@H]1CO | 8 | 16
O=C(Nc1cc(F)ccc1F)N[C@@H]1CC[C@H](CCn2cc(C3CC3)nn2)O[C@H]1CO | 1 | 4
CCNC(=O)C[C@@H]1C=C[C@@H](NC(=O)C2CC2)[C@@H](CO)O1 | 11 | 11

Source: PubChem
